Screening data deposited in PubChem by Broad Institute.
Calb FLC: affects C. albicans growth with fluconazole; actives 0.57% (n = 300,000); C. albicans CaCi-2 (fluconazole-resistant clinical isolate) + fluconazole, Alamar Blue growth, 48 h; growth inhibition, % (test concentration not listed);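 active means most replicates above 75%; inconclusive means exactly half above 75%; inactive means most below 75%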;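 further: all wells also contain fluconazole at 8 µg/ml as a sub-toxic cotreatment; 0% = median of DMSO wells and 100% = median of geldanamycin control wells; wells of about 8 µL received 7.5 nL stock; the first replicate is given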
T cruzi repl: blocks replication of Trypanosoma cruzi; T. cruzi beta-gal in NIH3T3, luminescence, 90 h; inhibition, % (no concentration beside the values); actives 1.4% (n = 300,000); AID 1885;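 active means mean inhibition across valid replicates above about 55%, limit read from the data; inconclusive means mean below that limit but half or more replicates reach it; inactive means mean below it, under half of replicates reach it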;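 further: signal also drops with host cell toxicity which is not excluded here; 0% = plate median of DMSO wells and 100% = zero luminescence signal; higher percent means less beta-gal luminescence so fewer parasites; stock transfer was 50 nL into about 50 µL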
RanGTP-Imp inh: disruptors of Ran-importin-beta complex formation – biochemical, FRET, CFP-Ran, YFP-importin-beta, homogeneous, primary screen. cell-free CFP-Ran/YFP-importin-beta FRET ratio. inhibition, % (test concentration not listed). actives 1.1% (n = 300,000);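 active means most replicates above 15%; inconclusive means exactly half above 15%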;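 further: 0% = DMSO wells and 100% = Ran loaded with GDP instead of GTP; wells of about 40 µL received 100 nL stock; the first replicate is given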
AF4-AF9 inh: inhibitors of human MLL-AF4/AF9 interaction | P42568 | AlphaScreen, biotin-AF4 peptide binding to FLAG-AF9 | inhibition, % at 10 µM | actives 0.47% (n = 350,000);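 active means every replicate reaching a set inhibition limit, whatever the replicate mean, cut at about 25% in these data; inconclusive means mean inhibition reaches that limit but some replicates miss it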;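 further: 0% = plate neutral control median and 100% = total signal loss; the record names both 10 and 1 µM as test concentration; the first replicate is given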
Target sequence (P42568 whole entry, looked up): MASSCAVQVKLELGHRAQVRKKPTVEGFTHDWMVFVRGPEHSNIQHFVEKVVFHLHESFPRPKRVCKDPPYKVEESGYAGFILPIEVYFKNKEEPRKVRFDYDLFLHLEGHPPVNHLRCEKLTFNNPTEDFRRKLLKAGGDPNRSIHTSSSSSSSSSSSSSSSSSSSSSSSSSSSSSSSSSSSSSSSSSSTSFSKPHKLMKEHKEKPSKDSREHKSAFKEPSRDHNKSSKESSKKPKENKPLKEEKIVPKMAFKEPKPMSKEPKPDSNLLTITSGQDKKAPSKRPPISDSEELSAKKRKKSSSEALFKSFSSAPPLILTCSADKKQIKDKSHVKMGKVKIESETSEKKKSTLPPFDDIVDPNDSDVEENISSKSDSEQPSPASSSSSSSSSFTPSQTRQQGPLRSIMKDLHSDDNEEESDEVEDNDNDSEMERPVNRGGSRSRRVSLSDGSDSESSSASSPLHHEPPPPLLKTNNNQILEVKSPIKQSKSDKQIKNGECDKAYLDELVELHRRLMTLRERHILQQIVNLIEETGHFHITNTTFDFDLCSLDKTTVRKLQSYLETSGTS
ALR inh: human ALR oxidase inhibition via reduced H2O2 | inhibition, % (concentration not given with the values) | purified ALR, DTT oxidation, H2O2 HRP-luminol luminescence | actives 3.8% (n = 290,000) | P55789;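 active means mean and each replicate at 75% or more; inconclusive means only one of the two met; inactive means neither met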;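 further: stock transfer was 7.5 nL into about 7.5 µL; 0% = neutral wells and 100% = wells with inactivated enzyme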
Target sequence (P55789 whole entry, looked up): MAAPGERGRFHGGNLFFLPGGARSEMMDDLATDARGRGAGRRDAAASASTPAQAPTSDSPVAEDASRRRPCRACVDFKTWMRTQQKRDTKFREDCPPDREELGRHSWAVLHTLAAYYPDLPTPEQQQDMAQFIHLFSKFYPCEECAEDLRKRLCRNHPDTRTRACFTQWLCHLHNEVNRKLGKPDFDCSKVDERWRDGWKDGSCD
FGF22 binding: binders of recombinant human FGF22 by thermal shift. Q9HCT0. SYPRO orange fluorescence; percent of sucrose octasulfate shift, DMSO zero. calls only at 9.99 µM. actives 1.5% (n = 340,000). AID 651658;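 active means melting point raised past a set limit in the mean and every replicate; inconclusive means no clear call; three in four hits are not shown here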
Target sequence (Q9HCT0 whole entry, looked up): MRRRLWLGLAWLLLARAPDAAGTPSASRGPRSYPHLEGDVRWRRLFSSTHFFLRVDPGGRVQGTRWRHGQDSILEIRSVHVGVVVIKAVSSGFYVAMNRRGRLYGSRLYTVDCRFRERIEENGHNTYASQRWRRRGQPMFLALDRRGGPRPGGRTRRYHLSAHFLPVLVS
rRNA inh HTS: inhibits bacterial ribosomal RNA function over humanized ribosomes. E. coli WT GFP vs humanized-ribosome RFP mutants, fluorescence, 24 h; hits give low values; DMSO median 0, no signal -100. GFP signal change (wild-type ribosome), % (concentration not given with the values). actives 1.6% (n = 350,000). AID 720706;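 active means significant combined selectivity score with lowered wild-type GFP, culture density cut under 30%, mutant RFP and density less affected; inactive means any of these conditions unmet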; further: one replicate is shown; some compounds called inactive have numbers as strong as hits
Beta cell apopt: beta cell apoptosis inhibition; INS-1E cytokine-induced death, ATP luminescence, 48 h; percent of positive-control rescue, neutral wells zero; AID 435005; protection from apoptosis, % (no concentration beside the values); actives 0.8% (n = 300,000);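 active means all replicates at 75% or more, or half of them and the mean; inconclusive means half reach 75% but not the mean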;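 further: 0% = cytokine-treated negative control wells and 100% = positive control rescue; higher means more ATP so stronger rescue from cytokine killing; wells of about 40 µL received 100 nL stock; the first replicate is given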
rRNA inh HTS OD600: recorded beside rRNA inh HTS, whose call it bears; OD600 change, %; measured here: OD600 growth;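 optical density of the mix in the first replicate; 0 = DMSO median and -100 = no signal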
rRNA inh HTS RFP: recorded beside rRNA inh HTS, whose call it bears; RFP signal change, %; measured here: RFP humanized mutant strains;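 first replicate; 0 = DMSO median and -100 = no signal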
* = called active by the depositor; i = inactive; ? = inconclusive; . = not tested or not shown. Some of the compounds tested; rates above refer to the full screens.

SMILES	Calb FLC	T cruzi repl	RanGTP-Imp inh	AF4-AF9 inh	ALR inh	FGF22 binding	rRNA inh HTS	rRNA inh HTS OD600	rRNA inh HTS RFP	Beta cell apopt
CCCCCCOC(=O)c1ccc(NC(=O)c2cc(OC)c(OC)c(OC)c2Br)cc1	7.9	17.3	2.5	.	1.9	.	.	.	.	0.1
COc1ccc(Br)cc1CNc1ccccc1	-1.0	4.8	-1.4	0.1	-5.5	i	-10.6	-21.5	-6.9	-24.2
O=C(CCCC(=O)N(c1ccc2c(c1)OCCO2)C(C(=O)NC1CCCCC1)c1ccc(Cl)cc1)Nc1ccccn1 (stereo not given)	13.7	8.5	0.2	5.4	-6.1	i	13.2	10.0	-1.7	19.8
CCCCOc1ccc(S(=O)(=O)NNC(=O)c2cc3ccccc3o2)cc1	24.9	-22.1	4.4	9.9	24.2	i	-17.4	-32.9	-8.0	5.1
Cc1ccc(C(=O)N2CCC3(CC2)Oc2ccc(Cl)cc2C(=O)C32CC(c3cccnc3)=NO2)s1 (stereo not given)	40.5	1.4	5.7	5.4	.	i	-2.1	-1.6	0.8	-8.4
COc1ccc(CNC(=O)c2ccc(N3CCOCC3)c([N+](=O)[O-])c2)cc1	14.3	-3.4	-1.3	1.6	-8.0	i	-12.4	-13.3	-5.0	7.9
c1csc(-c2cn3c(n2)SCC3)c1	-2.9	-5.5	-1.1	.	92.3*	.	.	.	.	-2.1
COc1ccccc1NS(=O)(=O)c1cccc(C(=O)NCc2ccccn2)c1	2.4	-7.7	0.7	-1.5	-0.4	i	6.8	-1.7	-0.7	1.7
Cc1cc(C)cc(N(CC(=O)NC2CCCC2)C(=O)CCC(=O)Nc2nc(C)cs2)c1	5.8	7.1	4.6	-0.5	-0.1	i	0.1	6.1	-2.9	5.4
COc1ccc(NC(=O)CSc2nnc(CNC(=O)c3cccs3)o2)c(OC)c1	0.2	-18.5	2.4	-0.1	-4.8	i	3.6	7.9	-0.4	2.4
COC(=O)COc1nsnc1N1CCOCC1	-10.1	-5.1	-1.3	.	-13.0	.	.	.	.	-2.7
O=C(/C=C/c1ccccc1)N/C(=C/c1ccccc1)C(=O)N1CCOCC1	-0.1	7.8	0.4	.	-0.6	.	.	.	.	0.2
CCOC(=O)C1CCN(C(=O)CCS(=O)(=O)c2ccc3c(c2)CCN3C(=O)CC)CC1	-10.0	3.5	-1.7	-0.4	-13.6	i	8.4	8.4	-1.8	-2.6
CCC(=O)Nc1cccc(C2=NOC3(C2)C[C@@H](C(N)=O)N(C(=O)c2cc([N+](=O)[O-])cc([N+](=O)[O-])c2C)C3)c1 (stereo not given in full)	2.6	-6.8	2.1	.	-8.8	i	1.9	6.3	-2.2	-2.3
Cc1[nH]c2ccccc2c1C(=O)CN1C(=O)NC2(CCCCCC2)C1=O	.	.	.	-0.7	2.9	i	-3.0	-22.1	-2.8	-18.4
C=CCn1c(SCC(=O)Nc2sccc2C(N)=O)nc2ccc(Cl)cc2c1=O	3.3	-13.6	-0.6	.	.	.	.	.	.	25.0
CCN(CC)C(=O)COC(=O)c1cc(-c2ccco2)nc2ccccc12	1.1	-2.1	-3.6	-1.2	.	i	16.2	-7.2	7.1	.
Cc1cccc(-c2noc(-c3cc4ccccc4oc3=O)n2)c1	-6.1	-17.9	1.2	.	-17.6	.	.	.	.	-17.4
CC1CCCN(c2ccc([N+](=O)[O-])cc2C(=O)c2ccccc2)C1 (stereo not given)	13.2	5.2	?	18.7	0.6	i	-10.3	-5.8	2.4	44.5
Cc1cccn2c(=O)c(/C=C(\C#N)S(=O)(=O)c3ccc(Cl)cc3)c(N3CCC(C(N)=O)CC3)nc12	-1.0	-19.4	16.6*	.	-3.4	.	.	.	.	0.4
Cc1c(C)c2cc(Cl)c(O)c(CN3CCCC(C)C3)c2oc1=O (stereo not given)	2.5	-2.3	?	.	29.3	.	.	.	.	-1.9
Cc1occc1C(=O)NCCc1cccc(Cl)c1	1.6	-3.4	-4.1	.	-6.2	.	.	.	.	-4.8
O=C(Nc1cccc(S(=O)(=O)NC2=NCCC2)c1)c1ccccc1F	.	.	.	0.2	-8.1	i	1.2	15.0	-1.0	-1.7
Cn1c(=O)[nH]c(=O)c2c1nc(N1CCN(Cc3ccccc3)CC1)n2CCSc1ncccn1	-7.1	7.7	-0.1	-14.1	.	i	11.6	9.0	-4.2	-5.7
COc1ccc2c(c1)CCc1c-2n[nH]c1C(=O)NCCC(C)C	-0.5	24.2	-3.4	-2.0	-4.1	i	-6.2	-4.8	0.8	9.6
CC(C)=CCC/C(C)=C/C=N/NC(=O)c1ccccc1[N+](=O)[O-]	-9.3	-12.3	0.2	.	-8.2	.	.	.	.	-3.3
Cc1oc2nc(SCC(=O)Nc3ccc(S(N)(=O)=O)cc3)nc(NC(=O)c3ccccc3)c2c1C	-4.2	-12.1	-3.9	.	-0.5	.	.	.	.	-1.3
COc1cccc(CCNS(=O)(=O)CCNC(=O)c2cccc(OC)c2)c1	-8.3	-4.1	-0.1	2.1	1.9	i	-1.7	-3.9	-2.4	-0.5
CCCCn1nc2cc(C(=O)NCc3ccc(OC)cc3)ccc2c1OCC	3.1	-1.5	?	-0.8	.	i	-4.8	4.3	-0.8	-2.3
CCOC(=O)c1c(C)n(C)c2ccc(OC(=O)c3ccc([N+](=O)[O-])cc3)cc12	2.9	-4.3	3.4	.	-14.7	.	.	.	.	8.6
COCCCNC(=O)c1cc(OC)c(OC)c(OC)c1	45.4	-21.0	-2.6	.	-5.4	.	.	.	.	1.2
COc1ccc([N+](=O)[O-])cc1NC(=O)C(C)OC(=O)c1cccnc1 (stereo not given)	-9.9	-16.3	2.3	.	-2.9	.	.	.	.	-2.5
COc1ccccc1CN(C)C(=O)c1ccc(S(=O)(=O)NCc2ccco2)cc1	.	.	.	1.8	.	i	2.9	-2.2	5.5	-4.1
CC(C)CCNC(=O)c1cc(S(=O)(=O)N2CCc3ccccc32)cn1C	-1.6	21.8	-0.3	12.1	-11.5	i	6.8	0.2	5.0	-3.5
COc1cc2oc3ccccc3c2cc1N(CC(=O)N(C)C)S(=O)(=O)c1ccccc1	14.4	13.9	0.9	.	-5.4	.	.	.	.	2.9
COc1ccc(/C(N)=N/OC(=O)c2cccc([N+](=O)[O-])c2C)cc1OC	0.7	5.8	3.6	.	-5.7	.	.	.	.	-3.1

Shown as labelled records: two of the compounds above.
COc1ccc([N+](=O)[O-])cc1NC(=O)C(C)OC(=O)c1cccnc1 (stereo not given)
  Calb FLC: -9.9; T cruzi repl: -16.3; RanGTP-Imp inh: 2.3; AF4-AF9 inh: .; ALR inh: -2.9; FGF22 binding: .; rRNA inh HTS: .; rRNA inh HTS OD600: .; rRNA inh HTS RFP: .; Beta cell apopt: -2.5
COc1ccc2c(c1)CCc1c-2n[nH]c1C(=O)NCCC(C)C
  Calb FLC: -0.5; T cruzi repl: 24.2; RanGTP-Imp inh: -3.4; AF4-AF9 inh: -2.0; ALR inh: -4.1; FGF22 binding: i; rRNA inh HTS: -6.2; rRNA inh HTS OD600: -4.8; rRNA inh HTS RFP: 0.8; Beta cell apopt: 9.6

Carrying on.
SMILES	Calb FLC	T cruzi repl	RanGTP-Imp inh	AF4-AF9 inh	ALR inh	FGF22 binding	rRNA inh HTS	rRNA inh HTS OD600	rRNA inh HTS RFP	Beta cell apopt
O=C(N/N=C/c1ccncc1)c1cc2ccccc2cc1O	90.7*	-7.9	-4.3	0.7	41.5	i	1.0	-0.3	0.8	-1.0
COc1ccc(N2C(=O)C(C)(C)C2c2c(O)ccc3ccccc23)cc1 (stereo not given)	51.9	5.1	4.8	0.2	5.5	i	-38.7	-68.0	6.6	2.1
N#CC1(NC(=O)COc2ccc(C(N)=O)cc2)CCCC1	.	.	.	-1.9	-3.2	i	0.5	10.1	-3.5	-4.6
COCC(=O)Nc1ccc(OCc2ccccc2)cc1	-40.9	-5.2	-1.6	-4.2	-14.2	i	.	.	.	-8.6
Cc1cccc(-n2nnc(C(=O)NCc3ccccn3)c2N)c1	15.0	3.8	0.1	.	0.1	.	.	.	.	3.0
N#C/C(=N\Nc1cccc(F)c1)C(=N)N1CCCCCC1	37.8	19.3	-0.2	-1.9	.	i	17.2	20.8	0.9	1.1
COc1ccc(Cl)cc1NC(=O)CN(C)C(=O)COc1ccccc1F	-5.2	5.0	-3.5	0.6	-11.2	i	-1.4	-12.2	-2.7	4.4
O=C(NCC1CCCO1)c1nc2c(nnn2Cc2ccccc2Cl)c(=O)[nH]1 (stereo not given)	15.4	26.4	0.2	0.5	5.2	i	1.3	0.9	-7.4	8.1
COc1ccccc1-c1ccc(SCC(=O)NCCc2ccccc2)nn1	-0.4	2.4	-0.4	2.1	.	i	-31.9*	-21.0*	-4.1*	-6.0
O=C(Nc1ccc(N2CCN(C(=O)c3ccccc3)CC2)c(Cl)c1)c1ncn[nH]1	-0.7	-10.1	0.5	-4.9	43.5	i	-24.4*	-14.7*	0.1*	3.8
COc1ccc(NS(=O)(=O)c2ccc(NC(=O)c3ccc(Br)cc3)cc2)nn1	-8.0	-2.2	1.8	-1.5	.	i	-22.9	-29.0	5.8	2.9
Cc1ccc(NC(=O)C2CCC(=O)N2C(=O)OCc2ccccc2)cc1 (stereo not given)	-12.2	0.3	0.5	-4.1	-1.6	i	1.9	6.8	1.1	0.9
Cc1nc(NC(=O)CCCC(=O)Nc2nc(C)c(C)s2)sc1C	-16.9	8.4	-2.6	.	-12.3	.	.	.	.	-4.7
CCOC(=O)CC1OC(=O)c2cc3c(cc21)C(=O)OC3CC(=O)OCC (stereo not given)	-2.5	-5.1	1.1	-1.2	1.6	i	6.8	1.4	0.8	2.6
O=C(COC(=O)/C=C/c1ccc(OC(F)F)cc1)NC1CCCC1	.	.	.	-3.8	29.3	i	8.7	11.2	-0.1	-9.3
COc1ccc(C2C(=O)c3ccccc3C2=O)cc1OC	.	-6.6	.	0.4	7.4	i	10.4	9.3	1.5	5.9
CCC(=O)NC(=S)Nc1ccc(NC(=O)c2ccc([N+](=O)[O-])cc2Cl)cc1	31.9	17.4	0.9	-4.0	.	i	13.4	-2.0	-7.2	-7.8
CCOCCCNC(=O)CN1CCN(Cc2ccc(Cl)cc2)C1=O	0.6	-1.8	-3.9	-1.8	-4.2	i	5.6	17.9	8.9	-1.4
O=C(O)c1cccc(S(=O)(=O)N2CCCC(c3nc4c(nnn4Cc4ccccc4Cl)c(=O)[nH]3)C2)c1 (stereo not given)	-2.3	-9.5	3.2	4.2	1.9	i	-0.6	3.2	0.1	-4.0
CCC(C)N1CCN(C(=O)C2CCN(S(=O)(=O)c3c(C)noc3/C=C/c3ccco3)CC2)CC1 (stereo not given)	-3.6	23.9	5.5	14.9	0.4	i	0.3	1.6	2.9	-0.3
Cc1nn(Cc2cccc(C(=O)Nc3ccn(Cc4ccccc4)n3)c2)c(C)c1[N+](=O)[O-]	21.0	23.4	-2.7	4.9	-4.2	i	.	.	.	2.3
CCCCn1c(-c2cccs2)nc2oc3ccccc3c(=O)c2c1=O	-7.2	12.6	4.8	2.9	-9.9	i	4.2	1.8	-0.5	4.8
Cc1ccccc1NC(=O)CSc1nnc(-c2ccco2)n1N	12.5	-1.3	3.7	0.3	-12.0	i	14.2	5.8	0.2	.
